# Bioassay records from PubChem BioAssay.
# HIV Env fusion – blocks HIV Env-driven cell-cell fusion | HeLa-JRFL Env/CEM21 cell fusion, luciferase | inhibition, % at 12.3 µM | actives 1.1% (n = 360,000) | AID 651610;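 active means mean replicate inhibition score of at least 50 and every replicate individually at or above 50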;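 further: 0% = plate neutral controls and 100% = maraviroc near 300 nM; one replicate is shown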
# PABP polyA inh – blocks human PABP binding to poly(A) RNA; P11940; fluorescence polarization; inhibition, % at 35 µM; actives 1% (n = 290,000); AID 2014;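 active means 50% or more with normal probe brightness, or confirmed in later tests; about a fifth of its hits are not listed in these tables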;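 further: calls also rest on retests at 20 µM and on dose response follow-up; controls were probe without protein and protein plus probe with vehicle; some compounds called inactive have numbers as strong as hits; many hits fall short of the cut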
# UUG fidelity – alters start codon recognition fidelity in yeast; actives 0.13% (n = 350,000); activity score, % at 18.7 µM; S. cerevisiae UUG-firefly luciferase reporter, luminescence/redox ratio;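 active means replicate mean at a twofold rise or more, about +100% in these data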;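 further: firefly luciferase made from a UUG start codon reports start codon fidelity; reporter light over untreated wells divided by growth signal over untreated wells; some hits fall short of that in this replicate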
# MT1-MMP act inh – MT1-MMP (human) activation inhibition; GFP/RFP ratio change, % at 20 µM; actives 0.061% (n = 360,000); HT1080 RFP-PRO-GFP cells, GFP/RFP ratio fluorescence, overnight; percent of plate control window, DMSO zero; AID 651647; P50281;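 active means GFP/RFP ratio change of at least 30% with cell ATP level not reduced by more than half and red fluorescence within 50% of control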; further: strong numbers were not always called active
#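 Assay system – RFP-PRO-GFP reporter HT1080 cells · Compound dosing – single dose of 20 µM compound, 1% DMSO final · Incubation – overnight compound exposure at 37 °C · Measure – GFP/RFP fluorescence ratio · Benchmarks – DMSO wells and RFP-L50D-GFP cells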
# CSC inhib – blocks cancer stem cells. cancer stem cell-like cells viability, luminescence. inhibition, % at 7.5 µM. actives 1.1% (n = 300,000). AID 2717;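 active means mean at 75% or more and at least half the replicates too; tested in HMLE shEcad cells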;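 further: 0% = median of negative and 100% = median of positive control wells; the first replicate is given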
# eIF4H FP inh – inhibitors of RNA binding by human eIF4H. AID 2012. Q15056. inhibition, % at 35 µM. actives 0.94% (n = 290,000). eIF4H fluorescence polarization binding assay;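 active means 50% or more with normal probe brightness, or confirmed in later tests; about a fifth of its hits are not listed in these tables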;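 further: calls also rest on retests at 20 µM and on dose response follow-up; 0% = protein and probe with vehicle and 100% = probe without protein; strong numbers were not always called active; many hits fall short of the cut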
# Rce1 inhib – blocks yeast Ras-converting enzyme; calls only; actives 0.27% (n = 290,000); yeast membranes, quenched prenylated peptide cleavage fluorescence;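 active means fall in fluorescence gain of 50% or more versus controls, with final raw signal at or below 3038400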;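 further: plate controls were neutral control wells for no effect and wells lacking membranes for full effect; tested at 10 µM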
# Target sequence (Q03530 whole entry, looked up): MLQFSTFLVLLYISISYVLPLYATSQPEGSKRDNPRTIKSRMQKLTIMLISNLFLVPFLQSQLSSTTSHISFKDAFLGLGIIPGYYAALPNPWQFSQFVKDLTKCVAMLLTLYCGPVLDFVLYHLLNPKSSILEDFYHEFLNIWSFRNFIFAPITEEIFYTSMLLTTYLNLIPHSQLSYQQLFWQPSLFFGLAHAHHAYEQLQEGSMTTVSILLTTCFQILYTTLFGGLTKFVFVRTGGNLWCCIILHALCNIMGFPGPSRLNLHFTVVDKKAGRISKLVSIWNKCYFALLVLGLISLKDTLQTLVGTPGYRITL
# eIF4H FP inh retest – also measured in eIF4H FP inh; calls as there; inhibition, %; compound at 20 µM; confirmation average;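 mean of two retest wells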
# PABP polyA inh retest – recorded beside PABP polyA inh, whose call it bears; inhibition, %; compound at 20 µM; confirmation repeats;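 mean of two retest wells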
# MT1-MMP act inh RFP – recorded beside MT1-MMP act inh, whose call it bears; RFP signal change, %; measured here: RFP expression control read;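 0 = vehicle wells; hits needed this value within 50% of zero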
# * hit, by the source's call; i = inactive; x = not tested or not shown; & = joins results of further samples; [ ] = dose if it differs, or a comment.
SMILES,HIV Env fusion,PABP polyA inh,UUG fidelity,MT1-MMP act inh,MT1-MMP act inh RFP,CSC inhib,eIF4H FP inh,Rce1 inhib,others
CC1CCN(S(=O)(=O)c2cn(CC(=O)N3CCN(c4cccc(C(F)(F)F)c4)CC3)cn2)CC1,x,1,-3,5,-16,x,-6,i,
CCn1nc(C(=O)Nc2nc3ccc(C)cc3s2)c2ccccc2c1=O,x,5,-19,-1,-2,2,-8,i,
CN(CCO)c1nc(N)c2c(N)nc3c(c2c1C#N)CC(=O)N3Cc1cccs1,3,0,-19,-9,4,-6,27,i,
COc1ccccc1NC(=S)NC(=O)c1ccc(Cn2cc(Br)cn2)cc1,-7,7,x,1,-4,-13,4,i,
COC(=O)CN1C(=O)[C@H]2[C@@H](c3ccc(C)o3)N3C(=O)CN(Cc4ccccn4)C(=O)[C@@]3(C)[C@H]2C1=O,-4,14,-5,1,-1,0,6,i,
Cc1ccc(NS(=O)(=O)c2cc(C(=O)NCc3ccncc3)ccc2C)cc1,-10,-14,-2,0,-5,-16,-3,i,
CC(=O)Nc1ccc(S(=O)(=O)Nc2ncccn2)cc1,-13,0,-12,1,4,-1,-15,i,
Cc1[nH]c(=O)[nH]c(=O)c1NS(=O)(=O)c1ccc2c(c1)CCCC2,x,0,-1,24,0,10,-7,i,
COCCn1nnnc1C(c1cccs1)N1CCN2CCCC2C1 (stereo not given),6,2,x,-4,1,4,-8,i,
COc1ccc2[nH]c3c(c2c1)CN(C)CC3,40,3,-19,-1,-6,-11,-6,i,
NS(=O)(=O)c1ccc(CCNC(=O)c2ccc3c(=O)n4c(nc3c2)CCCCC4)cc1,11,x,x,1,-1,-1,x,x,
Cc1nn(CC(=O)N2CCN(C)CC2)c(=O)c2c1sc1ccccc12,8,7,-16,1,6,-6,-4,i,
Cc1ccc2c(CC(=O)NNC(=O)c3ccccc3)coc2c1,-34,9,x,1,2,-6,-2,i,
CCc1ccccc1NC(=O)CSC1=C(C#N)C(c2ccc(O)c(OC)c2)C2=C(CCCC2=O)N1 (stereo not given),x,9,-11,1,-2,-5,20,i,
Cc1cc(OC(C)C(=O)N(Cc2ccco2)C2CCS(=O)(=O)C2)ccc1Cl (stereo not given),x,-10,1,1,1,-13,-12,i,
C=CCCC(=O)N(C)CCO,4,x,-11,-1,3,-16,x,i,
Cc1ccc(Cn2nc(C)c(NC(=O)c3cc(-c4ccco4)on3)c2C)cc1,x,-14,x,-4,-7,-9,0,i,
COc1ccccc1C(=O)O/N=C(\N)c1ccccn1,-4,-1,x,4,1,12,4,i,
O=C(NCCN1CCCC(O)C1)c1cc(COc2ccc(F)cc2Cl)on1 (stereo not given),14,-11,x,0,2,-5,2,i,
O=C(c1cccc(S(=O)(=O)N2CCOCC2)c1)N1CCCC1,-19,-2,-16,-2,2,-6,-10,i,
CC1CCN(C(=O)Cn2nnc(-c3cccs3)n2)CC1,-27,2,-17,2,1,-15,2,i,
CN(C)C1(CNC(=O)CC(NC(=O)c2ccccc2Cl)c2ccccc2)CCCCC1 (stereo not given),-3,12,-16,1,4,0,-10,i,
COc1ccc(/C=C2/SC(=S)N(CC(=O)O)C2=O)cc1OCc1ccc(Cl)cc1,-14,6,-13,3,1,8,14,i,
COc1cc(/C=C(\NC(=O)c2ccccc2)C(=O)NCC(=O)O)c([N+](=O)[O-])cc1OC,-12,-5,x,1,3,x,2,i,
CCOc1ncccc1C(=O)NCC(c1ccco1)N1CCCCC1 (stereo not given),9,x,-18,-2,0,1,x,x,

# Remaining list, next part:
SMILES,HIV Env fusion,PABP polyA inh,UUG fidelity,MT1-MMP act inh,MT1-MMP act inh RFP,CSC inhib,eIF4H FP inh,Rce1 inhib,others
Cc1ccc(S(=O)(=O)n2[nH]c(=O)cc2N)cc1,10,-10,-10,2,7,-7,-1,i,
CN(C[C@H](Cc1ccccc1)N(C[C@H](Cc1cccc2ccccc12)N(CCc1ccccc1)N=O)N=O)N=O,36&29,1,-11,-1&0,-4&-3,-10,2,i,
O=C(CSc1nnc(-c2ccncc2)n1CC1CCCO1)NCc1ccccc1 (stereo not given),-54,-2,-17,1,8,-17,-5,i,
O=C(CC1CCCC1)Nc1nnc(C2CC2)s1,-4,8,-10,3,2,-5,-2,i,
CN1CCC(=NNC(=O)CSCc2ccccc2)CC1,x,1,x,1,7,-12,-4,i,
O=C(NCC1COc2ccccc2O1)C1CCC(CNc2c(N3CCCCC3)c(=O)c2=O)CC1 (stereo not given),33,-8,-38,3,3,-9,0,x,
COc1cc(C(C)=O)ccc1OCC(O)CN1CCN(c2ccc(C)cc2C)CC1 (stereo not given),9,-1,-5,-1,-1,51,0,i,
COc1ccc(C2C=C(C)Nc3nc(SC)nn32)cc1 (stereo not given),x,-5,-22,3,-1,4,-6,i,
Clc1ccc(/C=N/Nc2nnc(Cl)c3ccccc23)cc1,x,2,-12,-2,5,17,2,i,
O=c1c2ccccc2oc2nc(-c3ccco3)n(Cc3ccccc3)c(=O)c12,-120,11,-9,-5,-3,-8,-1,i,
O=C(COC(=O)c1cccnc1Nc1cccc(C(F)(F)F)c1)NC1CCS(=O)(=O)C1 (stereo not given),15,-15,-12,1,-11,-14,3,i,
COc1ccc(CN2CCC(CO)(CCOc3ccccc3)CC2)c(OC)c1C,7,7,9,-1,1,16,-3,i,
CCOC(=O)COc1nc(OC)nc(N2CCOCC2)n1,-12,2,-18,4,2,-4,-4,i,
CCOC(=O)Cc1c(C)[nH]n(-c2ccccc2)c1=O,11,-13,-16,2,-2,-5,-9,i,
O=C(NCCS(=O)(=O)N1CCN(c2ccccc2F)CC1)c1cc(=O)c2ccccc2o1,-2,13,-1,1,-3,-5,-8,i,
Cc1cccn2c(=O)c3cc(C(=O)NCCN4CCOCC4)c(=N)n(Cc4cccnc4)c3nc12,5,10,-2,x,x,-17,2,i,
CCC(=O)N1CCc2cc(S(=O)(=O)CCC(=O)Nc3ccc(OC)c(OC)c3)ccc21,-1,4,x,0,3,-15,-1,i,
Cc1ccc(/C=C/C(=O)OCC(=O)Nc2cccnc2Cl)o1,27,x,-4,-4,0,x,x,x,
Cc1ccc(S(=O)(=O)c2cc3ccccc3oc2=Nc2ccc3c(c2)OCCO3)cc1,15,-10,-8,-8,-17,12,-2,i,
COc1ccc(CCNC(=O)CCn2c(=O)c3ccccc3n(CC(=O)NCC3CCCO3)c2=O)cc1OC (stereo not given),7,50,x,-1,-1,-23,-2,i,eIF4H FP inh retest=-4;PABP polyA inh retest=-4
C[C@H](CO)N1C[C@H](C)[C@@H](CN(C)C(=O)Nc2ccc(C(F)(F)F)cc2)Oc2c(NC(=O)Nc3ccc4c(c3)OCO4)cccc2C1=O,-18[16.7 µM],x,-5&-4,8,1,3,x,x,
CCOC(=O)Cc1csc(NC(=O)c2ccc(S(=O)(=O)N3CCCCC3)cc2)n1,32,-11,9,-2,-14,-1,-20,i,
CCn1cc(/C=C(\NC(=O)c2ccccc2)C(=O)NCCCn2ccnc2)c2ccccc21,-30,x,6,8,2,x,x,x,
O=c1[nH]c(C(F)(F)C(F)(F)C(F)(F)F)no1,11,x,-14,3,-2,x,x,x,
CC(=O)Nc1ccc(C(=O)OCc2ccc(F)cc2Cl)cc1,18,0,x,-2,-1,-6,30,i,

# Random excerpt: five compounds from above.
SMILES,HIV Env fusion,PABP polyA inh,UUG fidelity,MT1-MMP act inh,MT1-MMP act inh RFP,CSC inhib,eIF4H FP inh,Rce1 inhib,others
COc1cc(/C=C(\NC(=O)c2ccccc2)C(=O)NCC(=O)O)c([N+](=O)[O-])cc1OC,-12,-5,x,1,3,x,2,i,
O=C(CC1CCCC1)Nc1nnc(C2CC2)s1,-4,8,-10,3,2,-5,-2,i,
COCCn1nnnc1C(c1cccs1)N1CCN2CCCC2C1 (stereo not given),6,2,x,-4,1,4,-8,i,
O=C(c1cccc(S(=O)(=O)N2CCOCC2)c1)N1CCCC1,-19,-2,-16,-2,2,-6,-10,i,
Clc1ccc(/C=N/Nc2nnc(Cl)c3ccccc23)cc1,x,2,-12,-2,5,17,2,i,

# Copied from the entries so far for reference:
SMILES,HIV Env fusion,PABP polyA inh,UUG fidelity,MT1-MMP act inh,MT1-MMP act inh RFP,CSC inhib,eIF4H FP inh,Rce1 inhib,others
Cc1ccc(S(=O)(=O)n2[nH]c(=O)cc2N)cc1,10,-10,-10,2,7,-7,-1,i,
CN(C[C@H](Cc1ccccc1)N(C[C@H](Cc1cccc2ccccc12)N(CCc1ccccc1)N=O)N=O)N=O,36&29,1,-11,-1&0,-4&-3,-10,2,i,
O=C(CSc1nnc(-c2ccncc2)n1CC1CCCO1)NCc1ccccc1 (stereo not given),-54,-2,-17,1,8,-17,-5,i,
O=C(CC1CCCC1)Nc1nnc(C2CC2)s1,-4,8,-10,3,2,-5,-2,i,
CN1CCC(=NNC(=O)CSCc2ccccc2)CC1,x,1,x,1,7,-12,-4,i,
O=C(NCC1COc2ccccc2O1)C1CCC(CNc2c(N3CCCCC3)c(=O)c2=O)CC1 (stereo not given),33,-8,-38,3,3,-9,0,x,

# (list continues)
SMILES,HIV Env fusion,PABP polyA inh,UUG fidelity,MT1-MMP act inh,MT1-MMP act inh RFP,CSC inhib,eIF4H FP inh,Rce1 inhib,others
Cc1ccc2nc(NC(=O)Cn3cc4c(n3)CCCCC4)sc2c1,10,-9,-5,0,4,13,-6,i,
O=C(CN1C(=O)NC2(CCCC2)C1=O)N1CCN(S(=O)(=O)c2ccccc2Br)CC1,-11,4,7,0,1,-6,-3,i,
O=C(Cn1cnc2ccccc21)N/N=C/c1cccnc1,-53,-13,x,4,1,-8,-8,i,
COc1ccccc1CCc1nnc(CCC(=O)NC(C)Cn2nc(C)cc2C)o1 (stereo not given),4,-10,-4,8,4,21,-5,i,
O=C(CCCN1C(=O)/C(=C/c2ccc(F)cc2)SC1=S)NCCCn1ccnc1,9,-3,-27,-1,-1,22,-10,i,
CC(=O)N(CN1C(=O)C2C3C=CC(C3)C2C1=O)c1cccc(Cl)c1 (stereo not given),0,52,x,1,3,-2,-5.8*,i,eIF4H FP inh retest=61*;PABP polyA inh retest=28
